Bioassay records deposited in PubChem by several laboratories.
Bfl-1 A1 inh: caspase 3/7 activation in MEF A1-2A-BIM cells, primary screen, A1 inhibitor project, cell-based, luminescence, HTS | caspase activation, % (no concentration beside the values) | Caspase-Glo 3/7 luminescence, 3 h; percent of clofoctol response, vehicle zero | 0.066% of 330,000 active | AID 2462, 2010;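 active = over half of replicate activation scores above 10%, or exactly half above 10 with the replicate mean above 10; inconclusive = replicate mean below 10 yet half the replicates above 10; inactive = over half of replicates below 10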;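 note: wells of about 30 µL received 50 nL stock; many hits fall short of the cut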
RanGTP-Imp inh: inhibitors of RanGTP-importin-beta interaction, primary screen, biochemical, FRET, CFP-Ran, YFP-importin-beta, homogeneous; 1.1% of 300,000 active; inhibition, % (concentration not given with the values); Ran GTPase (GTP-bound) - importin-beta complex; cell-free CFP-Ran/YFP-importin-beta FRET ratio;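 active = most replicates above 15%; inconclusive = exactly half above 15%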;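 note: 0% = DMSO wells and 100% = Ran loaded with GDP instead of GTP; wells of about 40 µL received 100 nL stock; the first replicate is given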
Vif A3G: inhibitors of Vif binding to APOBEC3G peptide, primary screen, biochemical, TR-FRET, GST-Vif 1-94, biotin-A3G peptide, dose response retest (AID 1117319) | Virion infectivity factor (Human immunodeficiency virus type 1 group M subtype B (isolate … | inhibition, %; hits with a dose series show IC50 in µM | TR-FRET GST-Vif / biotin-A3G peptide binding; higher % means a stronger effect; test concentration not given here; strong numbers were not always called active | 0.57% of 260,000 active;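 active = above the screen mean plus three standard deviations and confirmed in dose response; inconclusive = results disagree or hit not tested in dose response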;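 note: Vif residues 1-94 fused to GST binding biotinylated APOBEC3G peptide 110-148; 0% = full assay without inhibitor and 100% = GST in place of GST-Vif; retest series ran down from 100 µM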
Beta cell apopt: inhibitors of cytokine-induced beta cell apoptosis, primary screen, luminescence; protection from apoptosis, % (test concentration not listed); INS-1E cytokine-induced death, ATP luminescence, 48 h; percent of positive-control rescue, neutral wells zero; 0.8% of 300,000 active;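 active = all replicates at 75% or more, or half of them and the mean; inconclusive = half reach 75% but not the mean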;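 note: 0% = cytokine-treated negative control wells and 100% = positive control rescue; higher means more ATP so stronger rescue from cytokine killing; wells of about 40 µL received 100 nL stock; the first replicate is given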
T cruzi inh: inhibitors of intracellular T. cruzi growth, primary screen, luminescence, NIH3T3 host cells. T. cruzi beta-gal in NIH3T3, 90 h. inhibition, % (no concentration beside the values). 1.4% of 300,000 active;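 active = mean inhibition across valid replicates above about 55%, limit read from the data; inconclusive = mean below that limit but half or more replicates reach it; inactive = mean below it, under half of replicates reach it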;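 note: signal also drops with host cell toxicity which is not excluded here; 0% = plate median of DMSO wells and 100% = zero luminescence signal; higher percent means less beta-gal luminescence so fewer parasites; stock transfer was 50 nL into about 50 µL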
Calb FLC: C. albicans growth inhibition with fluconazole, primary screen, CaCi-2 strain, Alamar Blue fluorescence; C. albicans CaCi-2 (fluconazole-resistant clinical isolate) + fluconazole, 48 h; growth inhibition, % (no concentration beside the values); 0.57% of 300,000 active; AID 1979, 2009;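 active = most replicates above 75%; inconclusive = exactly half above 75%; inactive = most below 75%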;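 note: all wells also contain fluconazole at 8 µg/ml as a sub-toxic cotreatment; 0% = median of DMSO wells and 100% = median of geldanamycin control wells; wells of about 8 µL received 7.5 nL stock; the first replicate is given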
LANA-H2A inh: blockers of LANA interaction with H2A/H2B – biochemical, FP readout, HTS, primary screen | AID 2629, 2010 | inhibition, % (concentration not given with the values) | Protein LANA1 (Human herpesvirus 8 type P (isolate GK18)), Q9QR71 | 0.6% of 320,000 active | cell-free LANA-H2A/H2B peptide, fluorescence polarization; in the data active = inhibition mostly above about 10%, no sharp cut-off; inactive = mostly below about 6.7%;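 note: stock transfer was 7.5 nL into about 10 µL; 0% = median of vehicle wells and 100% = median of positive control wells; one replicate is shown; the record names a cut of 25% in any replicate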
Target sequence (Q9QR71 whole entry, looked up): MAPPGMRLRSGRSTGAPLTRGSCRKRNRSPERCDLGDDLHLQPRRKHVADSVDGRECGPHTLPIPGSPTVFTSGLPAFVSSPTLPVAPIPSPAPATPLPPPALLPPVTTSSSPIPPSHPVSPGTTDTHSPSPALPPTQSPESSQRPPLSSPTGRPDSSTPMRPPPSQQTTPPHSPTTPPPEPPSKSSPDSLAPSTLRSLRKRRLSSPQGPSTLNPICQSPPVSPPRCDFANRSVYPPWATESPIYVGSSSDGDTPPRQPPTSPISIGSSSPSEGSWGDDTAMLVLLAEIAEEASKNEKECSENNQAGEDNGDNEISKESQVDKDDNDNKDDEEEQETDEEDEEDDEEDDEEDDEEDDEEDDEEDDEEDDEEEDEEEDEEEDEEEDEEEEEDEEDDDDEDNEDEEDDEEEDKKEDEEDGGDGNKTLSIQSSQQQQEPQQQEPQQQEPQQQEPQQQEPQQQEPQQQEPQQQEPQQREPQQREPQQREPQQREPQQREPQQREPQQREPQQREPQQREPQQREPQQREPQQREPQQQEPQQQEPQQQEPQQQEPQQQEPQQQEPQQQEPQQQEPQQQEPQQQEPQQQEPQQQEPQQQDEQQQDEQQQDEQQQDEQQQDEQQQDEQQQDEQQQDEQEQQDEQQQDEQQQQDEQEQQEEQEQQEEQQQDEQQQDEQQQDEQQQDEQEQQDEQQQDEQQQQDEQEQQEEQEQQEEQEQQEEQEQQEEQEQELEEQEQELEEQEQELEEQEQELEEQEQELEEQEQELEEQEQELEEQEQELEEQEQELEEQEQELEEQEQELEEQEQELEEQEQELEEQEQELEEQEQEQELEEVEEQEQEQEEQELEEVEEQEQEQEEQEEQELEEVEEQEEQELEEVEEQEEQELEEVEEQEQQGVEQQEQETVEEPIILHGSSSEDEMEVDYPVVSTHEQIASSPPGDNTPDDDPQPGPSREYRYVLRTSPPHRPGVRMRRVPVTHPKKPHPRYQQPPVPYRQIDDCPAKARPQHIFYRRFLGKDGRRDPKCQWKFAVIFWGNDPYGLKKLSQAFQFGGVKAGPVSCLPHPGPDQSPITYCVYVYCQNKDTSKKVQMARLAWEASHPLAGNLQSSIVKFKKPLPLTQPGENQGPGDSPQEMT
MLL AF4-AF9 inh: inhibitors of AF4 peptide binding to AF9, primary screen, biochemical, AlphaScreen, biotin-AF4 peptide, FLAG-AF9, single point. inhibition, % at 10 µM. Protein AF-9 (Homo sapiens), P42568. 0.47% of 350,000 active. AID 651704, 2012;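 active = every replicate reaching a set inhibition limit, whatever the replicate mean, cut at about 25% in these data; inconclusive = mean inhibition reaches that limit but some replicates miss it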;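 note: 0% = plate neutral control median and 100% = total signal loss; the record names both 10 and 1 µM as test concentration; the first replicate is given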
An asterisk follows results filed as active; ? = inconclusive; . = not tested or not shown; & = joins results of further samples. Rows are unselected, and some 4.3% of all compounds hit somewhere here.

SMILES,Bfl-1 A1 inh,RanGTP-Imp inh,LANA-H2A inh,T cruzi inh,Calb FLC,MLL AF4-AF9 inh,Vif A3G,Beta cell apopt
CC(CCN1CCN(c2ccc(F)cc2)CC1)c1ccccc1 (stereo not drawn),0.0,3.0,-1.2,16,7,6.3,.,-3
CCOc1ccc(NC(=O)C2=NN(c3ccccc3)C(=O)CC2)cc1S(=O)(=O)N1CCCCC1,0.0,.,.,.,.,6.2,-4%,-9
O=C(CCCOc1ccc(Cl)cc1Cl)Nc1ccncc1,-0.1,?,-1.9,8,11,.,1%,-5
Cc1ccc(C(=O)Nc2sc3c(c2C#N)CCCCC3)cc1C,-2.8,3.1,-9.8,23,6,.,-4%,5
O=C(NCCC1=CCCCC1)c1ccc(Br)o1,2.0,-0.6,2.3,14,14,.,4%,-2
COC(=O)Cc1c(C)c2ccc(OC(=O)c3ccco3)cc2oc1=O,1.6,1.4,2.5,-18,9,.,-1%,2
Cc1nccc(-c2ccc(-n3c(C)ccc3C)cc2)n1,0.1,-2.2,0.8,8,-21,-0.2,.,-22
O=C(NC(=S)N1CCCCC1)c1csc([N+](=O)[O-])c1,1.2,1.1,-0.3,10,-10,1.2,1%,-2
COc1ccc(/C=C2\SC(N)=NC2=O)cc1Br,0.2,?,0.7,17,13,-14,.,0
CCOC(=O)c1c(C)[nH]c(NC(=O)N2CCOCC2)c1C,1.1,4.0,-1.3,-5,-12,.,?,1
Cc1ccc2nc(C(Cl)(Cl)Cl)nc(N/N=C/c3ccncc3)c2c1,0.1,-4.4,-1.7,-3,13,-2.3,0%,4
Cc1cc(C)nc(N2CCCC(C(=O)NC3CCCC3)C2)n1 (stereo not drawn),0.7,0.2,-0.6,7,0,.,4%,3
COCCNC(=O)COc1cc(=O)n(C)c2ccccc12,0.1,11,0.3,-3,-8,.,-3%,0
c1ccc(SCc2nc3ccccc3[nH]2)nc1,0.3,4.4,2.5,-13,-3,.,4%,2
COC(=O)CNC(=O)C1Cc2ccccc2CN1S(=O)(=O)c1cccs1 (stereo not drawn),-0.2,3.9,4.2,-6,1,-2.3,30%,-2
Cc1cccc2[nH]c(CCNC(=O)C3CCC(=O)N(CCc4cccc(F)c4)C3)nc12 (stereo not drawn),0.9,3.8,-0.8,-13,-15,0.3,-4%,-1
COc1cccc(CNC(=O)CCCNS(=O)(=O)c2cccs2)c1,1.1,?,-7.0,-7,0,.,23%,-1
NS(=O)(=O)c1ccc(CCNC(=O)CCCn2c(SCC(=O)N3CCCC3)nc3ccsc3c2=O)cc1,0.6,0.9,4.6,-28,19,-1.2,15%,0
Cc1ccc(S(=O)(=O)N/N=C(\c2ccccc2)c2cccnc2)cc1,0.2,0.1,3.8,2,-2,-0.1,-8%,-6
O=C(Nc1ccccc1)C1=C[C@H](C2CCCCC2)C[C@H](OCc2ccc(CO)cc2)O1,0.4,-1.5,-3.2,20,5,-1.4&-1.6,12%,11
CCCC(=O)NCCSC,0.3,-0.4,-4.9,-24,.,.,-5%,0
O=C(COC(=O)/C=C/c1ccc(Br)o1)Nc1cccc(S(=O)(=O)N2CCOCC2)c1,1.3,.,-0.8,.,.,2.2,3%,-7
Cc1ccccc1NC(=O)c1c(Cl)nc(C)c(Cl)c1C,-0.6,3.4,-3.2,-3,-5,.,.,1
O=C(NCCc1ccccc1)/C(=C\c1cccc([N+](=O)[O-])c1)NC(=O)c1ccco1,-0.2,7.2,0.0,0,3,-1.4,1%,.
O=C(CN1N=C(c2ccccc2)CCC1=O)NCc1ccco1,-0.1,-1.6,-3.8,-2,3,-2.7,5%,-3
Cc1nc2nc[nH]n2c(=O)c1CCC(C)C,0.0,10,-1.2,-3,5,.,-7%,-1
CCOc1cc(CNc2nn[nH]n2)ccc1OCC(=O)NC(C)(C)C,-1.2,-2.3,0.1,0,6,-1.3,-8%,0
CC1Cn2c(nc3c2c(=O)[nH]c(=O)n3C)O1 (stereo not drawn),-0.4,2.0,2.5,-7,-2,.,1%,3
CCOc1ccc(-c2c(=O)n(OCc3ccccc3Br)c3ccccc3[n+]2[O-])c(OCC)c1,-0.1,-1.9,2.8,30,2,19,22%,8
CC1CCN(S(=O)(=O)c2ccc3c(ccn3CCC(=O)NC(C)C)c2)CC1,-1.0,-1.1,-0.2,0,-6,-0.3,.,-1
COC(=O)c1nn(-c2ccccc2)c(=O)cc1Oc1ccccc1,0.2,?,-1.8,-8,20,.,-6%,-7
CCOC(=O)c1cc(S(=O)(=O)N2CCN(c3ccccc3OC)CC2)cn1C,-0.2,-3.9,-1.1,16,-15,-4.4,.,-2
O=C1NC(NS(=O)(=O)c2ccccc2)(C(F)(F)F)C(=O)N1Cc1ccccc1 (stereo not drawn),1.7,2.1,4.2,-10,4,-0.7,8%,-2
CSc1ncccc1C(=O)Nc1ccc2c(c1)OCCO2,-2.7,.,3.9,.,.,0.8,-6%,-6
CCCCN(C(=O)c1ccc(S(=O)(=O)N(CC)CC)cc1)c1c(N)n(CCC)c(=O)[nH]c1=O,1.8,6.3,3.3,-13,-5,0.6,-5%,0
O=C(CN1NS(=O)(=O)c2ccccc2C1=O)Nc1ccccc1OC(F)F,0.4,-1.6,-0.9,16,9,.,20%,-7
COc1ccccc1NC(=O)CC1S/C(=N/N=C2\CCCc3ccccc32)NC1=O (stereo not drawn),0.5,4.3,2.6,-4,13,0.7,20%,.
O=C(Nc1cccc(-c2ccc(N3CCOCC3)nn2)c1)c1ccccc1,-0.2,?,5.2,-3,24,-6.4,-6%,5
CC(=O)OCC1(C)CN(c2ccccc2)N(C(=O)c2ccc(F)cc2)C1=O (stereo not drawn),0.7,0.1,-1.4,-8,-43,-1.9,5%,-7
Cc1ccc(/C=C/C(=O)O)cc1S(=O)(=O)Nc1ccc(C(=O)O)cc1,0.0,1.0,-2.7,-3,-5,4.8,12%,-6
CCOC(=O)c1ccc(N2Cc3ccccc3C2=NC(=O)c2cccc([N+](=O)[O-])c2)cc1,-1.0,6.0,4.8,11,4,2.1,.,-7
Cc1cc(C)c(S(=O)(=O)/N=C2\C=CC(=O)C(Cl)=C2)c(C)c1,-0.5,.,8.2,.,.,.,?,-5
O=C(CNC(=O)c1ccco1)N/N=C/c1c[nH]c2ccccc12,0.7,-2.0,-2.6,-16,6,-0.1,2%,-5
Cc1ccccc1C(=O)NNc1ncnc2c1cnn2C,-0.1,-2.7,26*,-7,-1,-2.7,-10%,-5
CCNS(=O)(=O)c1ccc(CCC(=O)N2CCN(c3ccc(OC)cc3)CC2)cc1,-0.6,-3.3,-0.2,18,-4,-1.9,-6%,1
Cc1ccc(NC(=O)CSc2nc(N)cc(=O)[nH]2)cc1S(=O)(=O)N1CCCCCC1,0.5,.,-0.8,.,.,0.0,-1%,7
COc1ccc(-c2[nH]n(-c3ccc([N+](=O)[O-])cc3)c(=O)c2C=NCc2ccncc2)cc1,-0.8,.,0.9,-10,.,0.3,6%,6
O=S(=O)(NCCCCNS(=O)(=O)c1ccc(F)cc1)c1ccc(F)cc1,0.5,?,4.8,1,8,-1.5,.,1
O=C(CN(Cc1ccco1)C(=O)CNS(=O)(=O)c1ccc(Cl)cc1)NCC1CCCO1 (stereo not drawn),-0.1,1.5,2.6,-2,0,-19,3%,2
CN(C)c1c(N)[nH]c2c(c1=O)c(=O)n(C)c(=O)n2C,-0.3,-0.6,3.8,-5,-2,-9.0,-3%,2

Further records
SMILES,Bfl-1 A1 inh,RanGTP-Imp inh,LANA-H2A inh,T cruzi inh,Calb FLC,MLL AF4-AF9 inh,Vif A3G,Beta cell apopt
Cc1ccc(S(=O)(=O)NCCCCCC(N)=O)cc1,-0.4,1.8,-4.7,-7,3,.,14%,-8
Cn1ncc(N=Cc2ccccc2[N+](=O)[O-])c1C(N)=O,-0.5,3.4,-1.2,-9,-8,-1.1,-1%,-6
Clc1cc(Cl)c2nc(N3CCCC3)sc2c1,-3.5,6.8,-3.4,1,0,.,1%,-2
Cc1cc(OCc2nc(-c3ccc(NC(=O)c4cccnc4)cc3)no2)ccc1Cl,0.2,2.4,-0.8,-1,-16,.,3%,125*
COc1ccc(N(CC(=O)N/N=C/c2ccc3c(c2)OCO3)S(=O)(=O)c2ccccc2)cc1,-0.4,4.0,-4.3,-16,6,.,-8%,2
CNC(=O)C1CC(=O)N(CCc2ccccc2)C(=Nc2ccc(OC)cc2)S1 (stereo not drawn),1.0,?,2.1,17,14,1.0,-8%,-1
CCCCC(=O)Nc1ccc(C(=O)NNC(=O)c2ccco2)cc1,0.2,1.2,-1.8,1,-11,.,3%,1
COC(=O)c1cc(CN2CCN(c3ccccc3C)CC2)ccc1O,-0.3,2.5,0.8,4,8,12,-4%,2
COc1ccccc1N1CCN(C(=O)c2cnn3cccnc23)CC1,.,-0.7,.,-3,4,.,8%,.
CC(=O)Nc1nc(C)nc(-c2ccccc2)c1C(C)=O,-0.5,-4.9,-6.2,2,-3,.,27%,-1
CCOC(=O)c1sc(NC(=O)CSc2nccc(C)n2)c(C#N)c1C,-0.7,3.6,1.3,-12,0,.,-2%,3
CCOc1ccc(N2CC(C(=O)Nc3cccc(S(=O)(=O)N4CCCC4)c3)CC2=O)cc1 (stereo not drawn),0.3,2.9,1.9,-14,-13,4.5,3%,6
COc1cc(NC(=O)CCN2CCN(CCO)CC2)cc(OC)c1,0.1,-1.1,0.7,3,-5,1.1,0%,-8
CCCCCN(C(=O)CCC(=O)OCc1cc(C(C)=O)ccc1OC)c1c(N)n(CCCC)c(=O)[nH]c1=O,0.9,6.0,-1.9,8,6,1.3,8%,-1
COc1cc(C)c(S(=O)(=O)NC2CC(C)(C)NC(C)(C)C2)cc1C,-0.4,0.4,4.2,4,-4,.,2%,-1
COc1ccc(C)cc1S(=O)(=O)N(C)CC(N)=O,0.4,1.2,0.6,-15,-6,.,-1%,2
CSc1cccc(NC(=O)c2ccc(Cl)nc2)c1,-1.2,0.8,1.0,-12,-6,.,-7%,-3
Cc1cc(NC(=O)Cc2cccs2)nn1CC(=O)NCc1ccco1,-0.1,-0.1,1.9,2,-1,.,1%,4
O=C1CCCN1CCC1CCN(C(=S)Nc2ccc(F)cc2)CC1,-1.7,-0.8,1.6,-38,-5,.,-7%,-7
O=C(NN=C1CCCCCCC1)C(=O)NC1CCCCC1,1.5,-1.2,3.4,-4,1,.,1%,-1
Cc1nc2ccccn2c1C(=O)N/N=C/c1cc(C)n(-c2ccc(Cl)cc2)c1C,-0.2,2.3,-2.9,-11,42,.,-5%,-2
Cc1cc(Cl)ccc1OC(C)C(=O)NN=C1CCCCCC1 (stereo not drawn),-0.6,-2.2,-14,-2,-2,2.1,.,2
